BJeLR viability – BJeLR cell viability loss. BJeLR (HRASV12) viability, CellTiter-Glo ATP luminescence, 48 h; reference of the scale not given here. inhibition, % (no concentration beside the values). 0.17% of 300,000 active. AID 1554;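 active = replicate mean above 50%; inconclusive = above 50% but judged a plate artefact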;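 also: 50 nL library stock added to about 25 µL; numbers are from one replicate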
Sa ugtP lethal – growth inhibition of S. aureus ugtP deletion strain; 0.54% of 330,000 active; AID 1259309; S. aureus RN4220 ugtP deletion, OD600 growth, 16 h; some inactives read as strong as hits; growth inhibition, % (test concentration not listed);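 active = z-score under -3 and OD600 up to 0.15 on both plates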;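 also: plate controls were untreated wells for no effect and antibiotic for full effect; wells of about 80 µL received 100 nL stock; the first replicate is given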
Mtb hypoxia rep – Mtb hypoxia fluorescent reporter inhibition; M. tuberculosis hypoxia-regulated fluorescent reporter, fluorescence; fluorescence inhibition, % (concentration not given with the values); 0.1% of 300,000 active;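 active = 35 to 45% if threefold the growth effect, above 45% if 1.5-fold the growth effect; inactive = the rest, general growth blockers included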;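 also: wells of about 50 µL received 100 nL stock; 0% = vehicle wells and 100% = reference inhibitor wells; whole bacteria with a GFP reporter of the hypoxia response; strong numbers were not always called active; many hits fall short of the cut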
RN4220 kill – kills Staphylococcus aureus RN4220 | inhibition, % (test concentration not listed) | 0.33% of 330,000 active | S. aureus RN4220 growth, OD600, 16 h;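 active = z-score of -3 or lower and OD600 up to 0.18 on both plates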;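 also: plate controls were untreated cells for no effect and reference antibiotic for full effect; stock transfer was 100 nL into about 80 µL; one replicate is shown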
PrP 5UTR inh – suppresses PrP 5' UTR mRNA reporter expression; cell-based PrP 5' UTR mRNA reporter, plate reader; inhibition, % (test concentration not listed); 0.35% of 340,000 active;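 active = every replicate at 50% or more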;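 also: 0 = median of the neutral control wells; tested in H4 reporter cells; numbers are from one replicate; inactives centre near -14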
Bead autofluor – counter-screen for toxin protease inhibitors: compound fluorescence. 3.1% of 360,000 active. fluorescence intensity (concentration not given with the values). compound autofluorescence counterscreen, microsphere flow cytometry; hits give high values. AID 624483;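 active = at least 3 SD above the mean of all compounds, about 16000 in these data; inconclusive = too few beads counted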;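 also: 100 nL of 1 mM stock went into each well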
Mtb hypoxia rep growth – further read-out of Mtb hypoxia rep, marked with its call; growth inhibition, %; measured here: M. tuberculosis growth (absorbance);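 0% = vehicle and 100% = reference antibiotic; read after six days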
Active calls of the source: *; ? = inconclusive; . = no result given.

SMILES	BJeLR viability	Sa ugtP lethal	Mtb hypoxia rep	Mtb hypoxia rep growth	RN4220 kill	PrP 5UTR inh	Bead autofluor
CC(=O)N1C(=O)c2cccc3cccc(c23)C(=O)N1C(C)=O	-2	-7	15	8	-12	.	.
CCN(CC(=O)NCc1cccs1)CC(=O)Nc1c(Cl)ccc(C)c1Cl	.	-3	-7	-1	-7.3	-18	4015
CCN(C(=O)COC(=O)c1c(NC(C)=O)sc(C)c1C)c1c(N)n(Cc2ccccc2)c(=O)[nH]c1=O	.	2	-8	-1	0.9	-12	3621
Oc1oc(-c2ccc(Br)cc2)nc1C=Nc1ccc(Br)cn1	-6	3	14	-6	6.5	-23	2085
Cc1ccc2nc(-c3ccc(NC(=S)NCC(C)(C)CN(C)C)cc3)sc2c1	.	-2	8	6	-5.3	-69	4417
COc1ccc(-c2cc(C(F)(F)F)nc(S(C)(=O)=O)n2)cc1	-10	10	2	-1	-1.7	-19	7102
CC(=O)N1c2ccc(S(=O)(=O)NCC3CCC(C(=O)NCc4ccccc4)CC3)cc2CC1C (stereo not given)	-1	1	-9	2	0.3	0	5419
CN(C(=O)c1c[nH]c(=O)cc1C(F)(F)F)c1ccc(Cl)cc1	-8	3	10	9	1.9	4	4545
O=C(Cc1ccc2c(c1)CCCC2)Nc1ccccc1Cl	-11	10	-3	-2	-0.9	-5	8148
O=C(c1ccc2ncsc2c1)N1CCN(c2nc3ccccc3s2)CC1	15	3	5	20	-3.3	-9	5332
COc1ccc(OC)c(C=NNC(=O)C(O)c2ccccc2)c1 (stereo not given)	.	4	9	10	-1.2	.	.
COc1ccc(OC(C)C(=O)N2CCN(c3ccccn3)CC2)cc1 (stereo not given)	27	-5	-3	11	1.7	-8	4641
COc1cc(/C=N/N(C)c2ccccc2)cc(Cl)c1O	5	.	.	.	.	-14	9883
O=C(/C=C/c1cccc([N+](=O)[O-])c1)c1ccc([N+](=O)[O-])o1	-25	.	.	.	.	16	3849
Cc1ccc(SCC(Cc2ccccc2)N2CCC(C)CCC2=O)cc1 (stereo not given)	.	-16	5	8	7.0	.	.
O=C(CSc1nc2ccccc2c(=O)n1-c1ccc(OC(F)F)cc1)NC1CC1	.	5	9	3	2.4	-6	5250
Cc1cccc(Cn2c(=O)n(Cc3ccco3)c(=O)c3ccccc32)c1	-6	17	.	.	-2.4	5	2664
COc1ccccc1S(=O)(=O)Cc1ccc(C(=O)NC2CC2)o1	2	0	-4	-4	-2.0	-8	4495
CCOc1ccc(CCNC(=O)C(C)N2C(=O)CC(C)(C)Sc3ccccc32)cc1 (stereo not given)	-1	2	1	-9	3.9	4	3025
CC(C)Oc1ccc(C(CC(=O)O)NC(=O)Cc2ccc(Cl)cc2)cc1 (stereo not given)	1	8	11	2	1.8	-18	3279
CCOc1ccc(Nc2nc(N)nc(CCl)n2)cc1	99*	4	.	.	6.9	-42	3739
C=CCn1c(CSc2nc3ccccc3s2)n[nH]c1=S	-1	-3	.	.	0.3	-19	2975
O=C(CSc1nc2ccccc2c(=O)n1Cc1ccco1)c1ccc(F)cc1	-2	18	6	5	10	-13	9182
Cc1nc2ccc(Nc3nc4cc(S(=O)(=O)N5CCOCC5)ccc4o3)cc2s1	-6	-9	-12	9	0.1	-1	2407
c1ccc(-c2cn3cccnc3n2)cc1	10	-2	4	-2	4.1	-30	11069
CC(C)NC(=O)c1cccc2c1-c1ccccc1C2=O	1	5	0	-1	5.5	-11	4165
COc1ccc2c(c1)-c1c(ssc1=S)C(C)(C)N2	1	-6	1	0	-0.6	4	10209
NNC(=O)c1csc(Cc2c(Cl)sc3ccc(Cl)cc23)n1	0	-4	4	9	6.7	-9	4175
O=C(NN=Cc1ccoc1)c1ccc(Br)cc1	.	4	2	-8	0.4	.	.
Cc1ccc(S(=O)(=O)N(c2nc(NC(C)C)nc(NC(C)C)n2)n2cnnc2)cc1	9	-1	11	9	22	-26	10358
COc1ccc(/C=C(/NC(=O)/C=C/c2ccccc2)C(=O)O)cc1	5	0	1	2	3.1	-11	?
C(=Nn1cnnc1)c1ccc2c(c1)OCCO2	.	2	13	5	3.6	.	.
O=C(Nc1ccccc1C(F)(F)F)C1CC(=O)N(c2ccccc2F)C1 (stereo not given)	4	-2	3	7	-2.5	-13	21214*
Cc1ccc(S(=O)(=O)N2CCN(C(=O)CNC(=O)c3sc4ccccc4c3Cl)CC2)cc1	0	-4	2	-5	3.3	-3	4190
COc1cc(-c2nc3n(n2)C(c2ccncc2)C(C(N)=O)=C(C)N3)cc(OC)c1OC (stereo not given)	-7	2	8	6	-2.0	-28	4047
COC(=O)Nc1ccccc1C(=O)N1CCC(O)(c2ccc(Cl)cc2)CC1	13	4	-2	-2	7.7	-16	7567
CC1(c2ccccc2)NC(=O)N(CC(=O)Nc2ccc(N3CCOCC3)cc2N2CCOCC2)C1=O (stereo not given)	7	-1	-13	3	0.9	-7	6606
Cc1nc2ccc(NC(=O)N3CCCCC3)cc2nc1C	-5	0	25	-17	-18	-20	3173
COC(=O)C1(C(=O)OC)NOC2C(=O)N(c3ccc(Cl)cc3Cl)C(=O)C21 (stereo not given)	7	20	1	-5	6.8	-21	15434
CCOC(=O)CN1C(=O)N(CC)C(C)=C(C(=O)OC)[C@@H]1c1ccccc1	-6	.	.	.	.	0	3808
CCCCS(=O)(=O)NC1=NCN(Cc2ccco2)CN1	10	-6	-5	5	-1.3	-25	3968
CCc1ccccc1NC(=O)c1cccc(NC(=O)C=Cc2ccco2)c1	.	-17	9	6	6.5	.	.
O=C(Cn1nc([N+](=O)[O-])nc1Br)NC1CCCCC1	12	17	12	10	-6.6	-7	5716
CCN(CC)CCOC(=O)c1ccc(NC(=O)CCNC(=O)Cn2ccc3ccccc3c2=O)cc1	-5	1	-6	0	2.5	-8	4168
CN(Cc1ccccc1)C(=O)C1CCCN(Cc2ccc(Cl)cc2)C1 (stereo not given)	-6	12	3	13	11	-8	2917
C=C(C)C1CC=C(C)C(=NNC(=O)COc2cccc(C)c2)C1 (stereo not given)	.	-6	5	7	9.4	.	.
CN(C)CCN(C(=O)c1ccc(C(=O)c2ccccc2)cc1)c1nc2cc3c(cc2s1)OCCO3	5	11	5	0	0.0	-32	5191
Cc1cccc(NC(=O)c2cn(-c3ccccc3)nc2-c2ccccc2)c1	-6	2	14	0	1.0	-14	6425
CC1Cc2ccccc2N1S(=O)(=O)c1cccc(C(=O)N2CCN(c3ncccn3)CC2)c1 (stereo not given)	36	16	1	-3	14	29	4002
COc1ccc(C(=O)C2CC2c2ccc3c(c2)OCO3)cc1 (stereo not given)	1	20	10	6	6.7	-3	4391
Cc1c(C#N)c(O)n(CCO)c(=O)c1N=Nc1ccc(S(N)(=O)=O)cc1	4	-5	5	8	2.5	-32	4202
CCC(C(=O)OCC(=O)Nc1cc(OC)ccc1OC)c1ccccc1 (stereo not given)	-3	9	8	5	2.4	-10	3338
O=c1[nH]c2c(c(=O)[nH]1)CCCCCC2	.	3	2	9	2.1	-9	3444
COc1cccc(C(=O)CC(C(=O)O)c2ccc(Cl)cc2)c1 (stereo not given)	6	5	5	1	6.8	-35	4364
C[n+]1ccc(/C=C/c2cccs2)cc1	4	4	7	0	2.7	-22	6054
CCc1ccc(N/C(SCc2ccccc2C)=C(/C#N)C(=O)NCc2ccco2)cc1	.	76	4	3	-2.6	-14	17346*
Cc1ccc2ncc(NC(=O)c3ccc(F)cc3)c(=O)n2c1	2	-1	-3	3	-8.0	-36	3357
O=C(CN1C(=O)COc2ccccc2C1=O)c1ccc2c(c1)OCCO2	-13	0	8	-3	4.0	7	5933
Cc1[nH]nc2c1C(=O)CC(C)(C)C2	-5	-1	.	.	-4.0	-20	3557
CC1CCCN(S(=O)(=O)c2ccc(S(=O)(=O)NC(C)c3cccs3)cc2)C1 (stereo not given)	.	9	7	6	15	-5	4339
The listing continues.
SMILES	BJeLR viability	Sa ugtP lethal	Mtb hypoxia rep	Mtb hypoxia rep growth	RN4220 kill	PrP 5UTR inh	Bead autofluor
CCOC(=O)c1c(C)c(C(=O)NCCN2CCOCC2)c(C)n1C	8	0	3	-1	2.9	-5	13279
CCC1Nc2ncnc(N3CCCCC3)c2N(Cc2ccc(Br)cc2)C1=O (stereo not given)	3	2	4	11	19	-9	4480
COC(=O)C1=C(C)Nc2c(c(=O)n(C)c(=O)n2C)C1c1ccc(Cl)cc1 (stereo not given)	-2	-3	12	1	0.7	-18	2907
Cc1nc2nc[nH]n2c(=O)c1C/C=C/c1ccccc1	-6	8	-2	7	3.6	-27	4129
Cc1ccc(/C=N/n2c(-c3ccc(Cl)cc3)n[nH]c2=S)o1	0	.	.	.	.	-13	4787
O=C(Nc1ccc(Oc2cccnc2)cc1)c1ccccc1F	10	-3	10	5	-0.8	-20	14981
Cc1ccc(N=Nc2c(N)[nH]n3c(=O)cc(-c4ccccc4)nc23)cc1	.	9	.	.	16	-7	2217
CC(C)CC(NC(=O)C(CC(C)C)NC(=O)C(Cc1ccc(OCc2ccccc2)cc1)NC(=O)OC(C)(C)C)C(N)=O (stereo not given)	1	0	-14	-35	4.5	-29	5004
O=C(NCCc1ccccn1)c1nc(Cn2cc(Br)cn2)no1	4	3	-2	2	0.5	-15	4214
COC(=O)CC(c1ccc(C(C)C)cc1)n1cccc1 (stereo not given)	0	21	7	4	7.9	-27	4226
COC(=O)c1ccc(COc2ncnc3c(Cl)cc(Cl)cc23)o1	-8	-15	10	10	2.8	-8	3746
Cc1cccc(NC(=O)CNC(=O)Cc2ccc(S(=O)(=O)N3CCOCC3)s2)c1C	.	3	-2	-8	-0.9	-23	3217

By substructure, the compounds so far containing a nitro group on carbon.
SMILES	BJeLR viability	Sa ugtP lethal	Mtb hypoxia rep	Mtb hypoxia rep growth	RN4220 kill	PrP 5UTR inh	Bead autofluor
O=C(/C=C/c1cccc([N+](=O)[O-])c1)c1ccc([N+](=O)[O-])o1	-25	.	.	.	.	16	3849
O=C(Cn1nc([N+](=O)[O-])nc1Br)NC1CCCCC1	12	17	12	10	-6.6	-7	5716

By substructure: those above with a cyano group
SMILES	BJeLR viability	Sa ugtP lethal	Mtb hypoxia rep	Mtb hypoxia rep growth	RN4220 kill	PrP 5UTR inh	Bead autofluor
Cc1c(C#N)c(O)n(CCO)c(=O)c1N=Nc1ccc(S(N)(=O)=O)cc1	4	-5	5	8	2.5	-32	4202
CCc1ccc(N/C(SCc2ccccc2C)=C(/C#N)C(=O)NCc2ccco2)cc1	.	76	4	3	-2.6	-14	17346*

Additional structures follow:
SMILES	BJeLR viability	Sa ugtP lethal	Mtb hypoxia rep	Mtb hypoxia rep growth	RN4220 kill	PrP 5UTR inh	Bead autofluor
Cc1cc(C)n(C(CC(=O)N2CCc3ccccc3C2)C(=O)O)n1 (stereo not given)	-1	0	-2	0	-1.4	5	15891
O=C(CC1SC(=O)N(c2ccccc2)C1=O)Nc1ccc(Br)cc1 (stereo not given)	-16	4	10	10	8.9	.	.
COc1ccc(C(=O)NC(=S)Nc2ccc3oc(=O)ccc3c2)cc1OC	-1	18	-1	1	2.9	-10	9972
COCCNS(=O)(=O)c1ccc(F)c(OC)c1	.	-1	3	6	2.1	-3	10708
COc1ccccc1C(=O)N/C(=C\c1cn(C)c2ccccc12)C(=O)NCCCN1CCOCC1	2	2	14	-3	2.7	-20	5831
Cc1cccc(N2CC(C(=O)Nc3nnc(SCC(=O)N4CCOCC4)s3)CC2=O)c1 (stereo not given)	-10	-1	6	2	4.9	-21	5524
COc1ccc(-c2nc(CSCC(=O)NCC3CCCO3)c(C)o2)cc1OC (stereo not given)	-3	7	3	7	5.2	-21	6025
COc1ccc(C2C(C(=O)Nc3cccc(C)n3)c3ccccc3C(=O)N2C)cc1 (stereo not given)	-5	1	9	7	1.0	-12	6493
CCOC(=O)C/C(C)=N/NC(=O)CNc1cccc(Cl)c1C	-8	.	.	.	.	-22	4004
CCn1c(-c2cccn(Cc3ccc(Cl)cc3Cl)c2=O)n[nH]c1=S	6	-2	12	6	3.6	-17	4764

Look-ups from the entries so far:
CCn1c(-c2cccn(Cc3ccc(Cl)cc3Cl)c2=O)n[nH]c1=S in RN4220 kill is listed with 3.6
CCOC(=O)C/C(C)=N/NC(=O)CNc1cccc(Cl)c1C in BJeLR viability is listed with -8
Cc1cc(C)n(C(CC(=O)N2CCc3ccccc3C2)C(=O)O)n1 (stereo not given) in BJeLR viability is listed with -1
COCCNS(=O)(=O)c1ccc(F)c(OC)c1 in Sa ugtP lethal is listed with -1
COc1ccccc1C(=O)N/C(=C\c1cn(C)c2ccccc12)C(=O)NCCCN1CCOCC1 in BJeLR viability is listed with 2

High-throughput results from PubChem BioAssay.
